Bioassay records as filed in PubChem BioAssay.
UUG fidelity = modulators of start codon recognition fidelity in yeast; AID 602363; S. cerevisiae UUG-firefly luciferase reporter, luminescence/redox ratio; activity score, % at 18.7 µM; 350,000 compounds, 0.13% hits;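 active means replicate mean at a twofold rise or more, about +100% in these data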;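 further: firefly luciferase made from a UUG start codon reports start codon fidelity; reporter light over untreated wells divided by growth signal over untreated wells; some hits fall short of that in this replicate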
Rce1 inh = yeast Ras-converting enzyme inhibition; yeast membranes, quenched prenylated peptide cleavage fluorescence; calls only; 290,000 compounds, 0.27% hits; AID 2563;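 active means fall in fluorescence gain of 50% or more versus controls, with final raw signal at or below 3038400; inconclusive means same 50% fall but final raw signal above 3038400; inactive means fall in fluorescence gain under 50%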;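 further: plate controls were neutral control wells for no effect and wells lacking membranes for full effect; tested at 10 µM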
CSC inhib = blocks cancer stem cells | cancer stem cell-like cells viability, luminescence | inhibition, % at 7.5 µM | 300,000 compounds, 1.1% hits | AID 2717;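 active means mean at 75% or more and at least half the replicates too; inconclusive means mean and replicates disagree; tested in HMLE shEcad cells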;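 further: 0% = median of negative and 100% = median of positive control wells; the first replicate is given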
MT1-MMP act inh = MT1-MMP (human) activation inhibition; P50281; HT1080 RFP-PRO-GFP cells, GFP/RFP ratio fluorescence, overnight; percent of plate control window, DMSO zero; GFP/RFP ratio change, % at 20 µM; 360,000 compounds, 0.061% hits; AID 651647;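 active means GFP/RFP ratio change of at least 30% with cell ATP level not reduced by more than half and red fluorescence within 50% of control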; further: strong numbers were not always called active
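Compound: 20 µM single dose, 1% DMSO / System: HT1080 RFP-PRO-GFP cells / Controls: DMSO and RFP-L50D-GFP cell wells / Read-out basis: GFP/RFP fluorescence ratio / Schedule: overnight compound exposure at 37 °C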
eIF4H inh = inhibitors of RNA binding by human eIF4H. Q15056. eIF4H fluorescence polarization binding assay. inhibition, % at 35 µM. 290,000 compounds, 0.94% hits;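 active means 50% or more with normal probe brightness, or confirmed in later tests; inconclusive means above 50% with abnormal brightness, or retests that disagree; inactive means below 50% or failed in later tests; about a fifth of its hits are not listed in these tables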;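 further: calls also rest on retests at 20 µM and on dose response follow-up; 0% = protein and probe with vehicle and 100% = probe without protein; strong numbers were not always called active; many hits fall short of the cut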
HIV Env fusion = inhibitors of HIV Env-mediated cell fusion; inhibition, % at 12.3 µM; 360,000 compounds, 1.1% hits; AID 651610; HeLa-JRFL Env/CEM21 cell fusion, luciferase;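 active means mean replicate inhibition score of at least 50 and every replicate individually at or above 50; inconclusive means only one of the two criteria met; inactive means mean below 50 and not all replicates reaching 50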;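 further: 0% = plate neutral controls and 100% = maraviroc near 300 nM; one replicate is shown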
PABP FP inh = PABP-poly(A) binding inhibition; P11940; PABP-poly(A) RNA binding, fluorescence polarization; 290,000 compounds, 1% hits; AID 2014; inhibition, % at 35 µM;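 active means 50% or more with normal probe brightness, or confirmed in later tests; inconclusive means above 50% with abnormal brightness, or retests that disagree; inactive means below 50% or failed in later tests; about a fifth of its hits are not listed in these tables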;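 further: calls also rest on retests at 20 µM and on dose response follow-up; controls were probe without protein and protein plus probe with vehicle; some compounds called inactive have numbers as strong as hits; many hits fall short of the cut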
Target sequence (P11940 whole entry, looked up): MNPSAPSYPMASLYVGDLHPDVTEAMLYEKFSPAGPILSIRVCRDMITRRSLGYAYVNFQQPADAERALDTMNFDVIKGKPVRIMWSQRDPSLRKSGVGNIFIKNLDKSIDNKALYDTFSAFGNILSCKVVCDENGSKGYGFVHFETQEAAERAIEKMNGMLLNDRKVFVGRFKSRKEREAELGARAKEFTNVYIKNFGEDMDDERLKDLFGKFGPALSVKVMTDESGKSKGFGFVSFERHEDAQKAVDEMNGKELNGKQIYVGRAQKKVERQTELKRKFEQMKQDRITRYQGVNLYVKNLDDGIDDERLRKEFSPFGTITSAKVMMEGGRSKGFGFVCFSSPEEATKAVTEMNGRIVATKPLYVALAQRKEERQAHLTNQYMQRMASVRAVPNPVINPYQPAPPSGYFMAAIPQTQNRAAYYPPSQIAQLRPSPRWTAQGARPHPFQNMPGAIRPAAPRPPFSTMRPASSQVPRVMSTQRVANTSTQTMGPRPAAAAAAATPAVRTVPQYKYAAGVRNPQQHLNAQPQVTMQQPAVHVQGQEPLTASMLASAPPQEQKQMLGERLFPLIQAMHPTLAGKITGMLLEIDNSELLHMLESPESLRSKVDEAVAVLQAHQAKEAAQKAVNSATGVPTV
eIF4H inh retest = also measured in eIF4H inh; calls as there; inhibition, %; compound at 20 µM; confirmation average;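 mean of two retest wells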
PABP FP inh retest = further read-out of PABP FP inh, marked with its call; inhibition, %; compound at 20 µM; confirmation repeats;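 mean of two retest wells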
MT1-MMP act inh RFP = recorded beside MT1-MMP act inh, whose call it bears; RFP signal change, %; measured here: RFP expression control read;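 0 = vehicle wells; hits needed this value within 50% of zero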
Starred values were filed as active, the others as inactive; i = inactive; ? = inconclusive; / = not tested or not shown; & = joins results of further samples. Only part of the results is shown; rates above refer to the full screens.

SMILES	UUG fidelity	Rce1 inh	CSC inhib	MT1-MMP act inh	MT1-MMP act inh RFP	eIF4H inh	HIV Env fusion	PABP FP inh	others
CN1C(=O)NC(=O)/C(=C\c2ccc([N+](=O)[O-])o2)C1=O	27	i	-1	39	65	95	/	4	eIF4H inh retest=-4;PABP FP inh retest=0
O=C(Cn1c(=O)n(CC2CS2)c2ccccc21)N1CCCCC1 (stereo not given)	-15	i	-10	-1	-15	-9	2	1
O=C(Nc1cccc(OC(=O)N2CCCCC2)c1)N1CCCCC1	-5	i	0	8	1	-6	/	-6
O=C(c1ccc(Cl)cc1)C1CCCN(Cc2ccc3ncccc3c2)C1 (stereo not given)	0	i	9	-12	-16	12	14	-4
C=CCn1c(O)c(C(CC)=Nc2ccccc2NC(C)=O)c(=O)[nH]c1=O	-5	i	-14	-2	4	-16	-53	10
Cc1ccc2nsnc2c1-n1c(C)nc2ccccc2c1=O	-10	i	12	-3	0	-5	24	-9
O=[N+]([O-])c1cc(Cl)c(Cl)cc1Cl	-10	/	-8	-1	4	/	/	/
O=P1(Nc2ccc(F)cc2)COc2ccccc2OC1	-4	i	-24	2	6	-1	-8	22
Cc1nn(-c2ccccc2)c2c1C(c1ccc3c(c1)OCO3)SCC(=O)N2 (stereo not given)	-14	i	6	0	-5	-1	-31	-6
CC(C)N1CCN(Cc2cccc([N+](=O)[O-])c2)CC1	/	i	-8	1	7	1	-6	-23
CC(=O)NC(=O)NC(C)Cc1ccccc1 (stereo not given)	-3	i	-9	-2	-5	-4	-93	5
CN1CCN(C(=O)COc2ccc(S(=O)(=O)Nc3ccc(Cl)cc3)cc2)CC1	-15	/	/	4	0	/	14	/
CCNc1nc(NC(C)(C)C)nc(SC)n1	-13	i	-4	0	-1	/	27	/
C=C1C/C(=C/C)C(=O)O[C@@H]2CCN3CC=C(COC(=O)[C@]1(C)O)[C@H]23	/	i	9	-4	0	-2	15	-5
CC(C)c1ccccc1OCC(=O)N1CCCN(C)CC1	-8	i	5	-1	3	-5	8	-3
NC(Cc1ccc(O)cc1)C(=O)NN=Cc1ccc(N(CCCl)CCCl)cc1 (stereo not given)	-8	/	/	-4	-5	/	-4	/
COCc1ccc(CN2CCCC(C(=O)c3sccc3C)C2)o1 (stereo not given)	-12	i	-10	1	1	7	-16	-10
Nc1c(C(=O)NCc2ccco2)c2nc3ccccc3nc2n1CCN1CCCCC1	6	i	29	-10	7	72*	-8	104*
CC(C)NC(=O)Cn1cc(C(=O)c2ccccc2)c2ccccc21	4	i	-15	-5	-1	-1	1	-4
CNCC(O)c1cc(F)c(OCc2ccccc2)c(OCc2ccccc2)c1F (stereo not given)	-10	i	-3	4	-2	/	23	/
CSCCC(c1nnnn1C1CCCC1)N1CCC(n2c(=O)[nH]c3ccccc32)CC1 (stereo not given)	0	/	/	6	1	/	-27	/
Cn1cc(C=O)c2nccnc21	-13	/	/	7	0	/	-3	/
CC(C)C(C)(NC(=O)c1cccn(Cc2ccc3c(c2)OC(F)(F)O3)c1=O)C(N)=O (stereo not given)	/	i	-14	2	3	2	-3	2
COC(=O)C(O)(c1ccc2c(c1)CCCN2)C(F)(F)F (stereo not given)	/	i	-11	4	0	2	/	1
Cc1ccccc1-n1c(O)c(/C=N/Nc2nc3c(c(=O)n(C)c(=O)n3C)n2C)c(=O)[nH]c1=S	/	i	3	1	4	-3	10	5
(more compounds)
SMILES	UUG fidelity	Rce1 inh	CSC inhib	MT1-MMP act inh	MT1-MMP act inh RFP	eIF4H inh	HIV Env fusion	PABP FP inh	others
CCOC(=O)[C@]12Cc3cc(OC)c(OC)cc3[C@H]1N(Cc1ccccc1)C(=O)c1ccccc12	-16	/	/	-5	-2	/	41	/
S=C1CN=C(c2ccccc2Cl)c2cc(Cl)ccc2N1	-6	i	/	1	-3	3	/	14
CCCNS(=O)(=O)c1ccc(OCC(=O)N2CCN(Cc3ccc4c(c3)OCO4)CC2)cc1	-20	i	/	2	-14	-12	50	-1
Cc1onc(-c2c(Cl)cccc2Cl)c1C(=O)Nc1ccc2c(C(F)(F)F)cc(=O)oc2c1	/	i	8	-4	-7	5	-6	-3
CN(C)CP(=O)(Nc1ccccc1)N(C)C (stereo not given)	-12	i	-12	6	13	10	/	12
C[C@]12CC[C@H](OS(=O)(=O)O)CC1=CC[C@@H]1[C@@H]2CC[C@]2(C)C(=O)CC[C@@H]12	-10&-23&-6	i	-2&-7	0&1&1	4&6&5	/	6&-9&18	/
CC(Cc1ccccc1)NCC(=O)Nc1cc(N(C)C)nc2ccccc12 (stereo not given)	11	i	-3	20	-9	6	-3	12
O=C1NC(=O)N(Cc2ccco2)C(=O)/C1=C/C=C/c1ccco1	/	i	56	-14	25	?	-466	?
CCc1cccc(CC)c1NC(=S)N1CC2CC(C1)c1cccc(=O)n1C2 (stereo not given)	/	i	-11	1	7	3	-2	50	eIF4H inh retest=-13;PABP FP inh retest=10
COc1ccc(Br)cc1CN1CCN(C(=O)Cc2ccccc2)CC1	4	i	/	4	4	10	/	21
CN1CCc2c([nH]c3ccccc23)C1	-15	i	-4	-1	-2	12	/	6
O=C(CN1C(=O)COc2ccccc21)N1CCC2(CC1)OCCO2	-16	i	-3	2	5	2	4	1
C=CCn1c(O)c(/C=N/N2CCOCC2)c(=O)[nH]c1=S	/	i	/	-3	-2	-9	1	2
COC(=O)C(O)(c1ccc(N(C)C(=O)c2cccs2)cc1)C(F)(F)F (stereo not given)	/	i	16	-5	-13	4	11	6
O=C1N(c2ccccc2)C(c2cccnc2)N2CCCN12 (stereo not given)	/	i	-14	-1	-1	11	-24	0
CCCCN(Cc1ccccc1)C1CCN(CCc2ccccc2)CC1	/	i	-2	-2	-3	-1	-14	0
C[N+]1(C)C2CCC1CC(OC(=O)c1c[nH]c3ccccc13)C2 (stereo not given)	-3	/	7	-6	0	/	14	/
COc1cc(N2CCOCC2)ccc1C=C1C(=O)NC(=O)NC1=O	/	i	-6	1	7	69*	15	4.4*	eIF4H inh retest=82*;PABP FP inh retest=52*
NC1CCCCC1N=Cc1c(O)n(Cc2ccc(F)cc2)c(=O)[nH]c1=O (stereo not given)	-14	i	-1	-1	1	-5	/	-2
COC(=O)C1=C(c2ccc(-c3ccccc3)c(F)c2)C[C@@H]2CC[C@H]1N2C(=O)N1CCOCC1	-7	/	18	8	-26	/	7	/
CC1CCN(C(=O)C(C)Cl)CC1 (stereo not given)	-1	i	-7	0	2	-12	6	-3
CCOP(=O)(Cc1ccc(C#N)o1)OCC	-12	i	-9	-1	-1	-8	-21	3
CC12CC1(C)C(=O)N(c1cc(Cl)cc(Cl)c1)C2=O (stereo not given)	-11	/	/	3	2	/	-44	/
CCOC(=O)CNC(=S)N1CC2C[C@@H](C1)Cn1c2cccc1=O	-28	i	-15	1	2	0	-20	-5
COP(=S)(OC)Oc1ccc(Sc2ccc(OP(=S)(OC)OC)cc2)cc1	-3	/	/	-2	1	/	-9	/

Retrieved by compound from the list above:
SMILES	UUG fidelity	Rce1 inh	CSC inhib	MT1-MMP act inh	MT1-MMP act inh RFP	eIF4H inh	HIV Env fusion	PABP FP inh	others
CC1CCN(C(=O)C(C)Cl)CC1 (stereo not given)	-1	i	-7	0	2	-12	6	-3
S=C1CN=C(c2ccccc2Cl)c2cc(Cl)ccc2N1	-6	i	/	1	-3	3	/	14
O=C1N(c2ccccc2)C(c2cccnc2)N2CCCN12 (stereo not given)	/	i	-14	-1	-1	11	-24	0
C=CCn1c(O)c(/C=N/N2CCOCC2)c(=O)[nH]c1=S	/	i	/	-3	-2	-9	1	2

Carrying on.
SMILES	UUG fidelity	Rce1 inh	CSC inhib	MT1-MMP act inh	MT1-MMP act inh RFP	eIF4H inh	HIV Env fusion	PABP FP inh	others
Cc1ccc(C2N3CCCN23)cc1 (stereo not given)	/	i	1	-1	0	2	-7	-2
COC(=O)C(O)(c1ccc(NC(=O)c2ccco2)c(OC)c1)C(F)(F)F (stereo not given)	-3	i	-8	6	4	5	/	17
Cn1c(O)c(C=NC2CCCCCC2)c(=O)[nH]c1=S	/	i	-12	5	4	1	-26	-4
COC(=O)c1ccc(N2C(=O)CC(N3CCC(n4c(=O)[nH]c5ccccc54)CC3)C2=O)cc1 (stereo not given)	1	/	-1	1	2	-5	/	-11
Cc1nc2ccccc2c(=O)n1-c1cccc(O)c1	-11	i	-13	-5	-5	2	-24	0
Nc1ncnc2c1ncn2[C@@H]1O[C@H](COP(=O)(O)CP(=O)(O)O)[C@@H](O)[C@H]1O	-8	/	/	-1	3	/	7	/
CN(C)c1ccccc1	-1	/	/	-3	-1	/	-2	/
CC1CCCCN1CC(=O)c1ccc2cc[nH]c2c1 (stereo not given)	-17	i	-7	1	2	-2	-20	1
CCOc1ccc(-n2c(O)c(/C=C3\C=Nc4ccccc43)c(=O)[nH]c2=O)cc1	-7	i	-8	-8	0	?	10	?
NCCNc1ccc([N+](=O)[O-])c2cccnc12	/	i	-10	-3	-3	15	-15	5
CCCCOCCCN1C(C)=CC(=C2C(=O)NC(=S)NC2=O)C=C1C	-21	i	-25	0	-3	-1	-10	-2
COC(=O)C1=C(c2ccc(Cl)c(C(F)(F)F)c2)C[C@@H]2CC[C@H]1N2C(=O)NCc1ccco1	-20	/	2	3	-13	/	11	/
CC1=C(C(=O)Nc2ccccc2)SCCO1	-9	i	-6	2	2	-4	0	5
CN1CC[C@@]23CCCC[C@@H]2[C@@H]1Cc1ccc(O)cc13	1	i	-17	-14	-2	-4	/	-4
COc1ccc(C2C(C#N)=C(N)Oc3c2c(=O)oc2ccccc32)cc1Cn1cc([N+](=O)[O-])cn1 (stereo not given)	/	i	3	0	-1	4	/	-12
CCc1ccc(NC2=NCCCS2)cc1	-20	/	-7	7	0	-3	15	-8
O=c1[nH]c(=O)n(Cc2ccccc2)c(O)c1C=Nc1ccc(CN2CCOCC2)cc1	-13	i	-12	1	-2	2	/	1
O=C1NCN(c2ccccc2)C12CCN(C(c1cc3ccccc3o1)c1nnnn1C1CCCCC1)CC2 (stereo not given)	21	/	/	-2	-3	/	-16	/
Cc1cc(C(=O)CS(=O)(=O)c2ccccc2)cc(C)c1OC(=O)N(C)C	/	i	-4	3	-1	-5	-49	-9
CCCCN1C(=O)NC(=O)C2(Cc3ccccc3N3CCOCC32)C1=O (stereo not given)	5	i	-16	5	3	6	14	0
Brc1ccc(Oc2cc(Br)c(Br)cc2Br)c(Br)c1	-21	/	24	-5	-2	/	/	/
O=C(/C=C/c1c[nH]c2ccccc12)c1c(O)n(CCc2ccccc2)c(=O)[nH]c1=O	-11	i	16	-129	-3	?	15	?
CCC(CO)(C(=O)OC1CC2CCC(C1)N2C)c1ccccc1 (stereo not given)	-6	i	2	-10	-4	-4	-13	8
O=C(COc1ccc(S(=O)(=O)N2CCOCC2)cc1)N1CCN(Cc2ccc3c(c2)OCO3)CC1	-3	i	-1	7	-11	-3	41	-9
Cc1ccc(-c2nc3ccccc3c(=O)n2-c2ncccc2C)cc1	11	i	5	1	0	-6	-36	1
Cn1c(N)c(C(=O)COC(=O)Cc2ccccc2)c(=O)n(C)c1=O	-1	/	7	2	7	/	-15	/
CCC(=NC1CCN(Cc2ccccc2)CC1)c1c(O)[nH]c(=O)[nH]c1=O	-23	/	-3	-5	0	10	17	4
COc1ccccc1C1C([N+](=O)[O-])=C(N)Oc2c1c(=O)oc1ccccc21 (stereo not given)	/	i	-7	-3	-1	-2	-9	0
